Vaccinia stage – blocks a specific stage of Vaccinia orthopoxvirus infection, primary screen, cell-based, single point | Vaccinia-infected cells, mCherry/Venus stage reporter fluorescence; hits give low values; some inactives read as strong as hits | activity change (mCherry), % (concentration not given with the values) | 89,000 tested, 0.01% active | AID 1053133, 2014;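 active = mCherry past -33% and 40 or more points under the early reporter, replicates agreeing; inconclusive = past -33% without that gap or agreement; tested in A549 cells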;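 also: scaled between vehicle wells and reference inhibitor wells; 23 nL library stock went into each well; one replicate is shown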
Vaccinia stage Venus – also measured in Vaccinia stage; calls as there; activity change (Venus), %; measured here: Venus reporter, other viral stage;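 negative = less Venus signal; first of two replicates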
* marks the source's active call; other numbers are inactive results; ? = inconclusive; . = not tested or not shown; & = joins results of further samples. A portion of the library, so the mix of outcomes need not match the whole.

SMILES	Vaccinia stage	Vaccinia stage Venus
C[C@H](CO)N1C[C@H](C)[C@H](CN(C)C(=O)Nc2ccc(F)cc2)OCCCC[C@H](C)Oc2ccc(NC(=O)NC3CCCCC3)cc2C1=O	3.8	-2.2
CN(C)C(=O)c1cccc(-c2ccc(C3[C@H]4CNC[C@@H]3N4Cc3cc(F)ccc3F)cc2)c1 (some centres undefined)	11.6&0.1	7.2&6.1
CCC(=O)Nc1ccc2c(c1)OC[C@H](C)N(CC1CCOCC1)C[C@H](C)[C@@H](OC)CN(C)C2=O	16.8	10.0
COC(=O)C[C@@H]1CC[C@H]2[C@@H](COC[C@@H](O)CN2C(=O)Nc2cccc(F)c2)O1	9.4	10.7
O=C(c1ccccn1)N1C[C@@H]2[C@H](c3ccccc31)[C@H](CO)N2C(=O)C1CC1	2.1	6.4
C/C=C/c1ccc([C@@H]2[C@@H](CO)N[C@@H]2CN(C(=O)C2CCC2)C(C)C)cc1	-12.5	-12.4
CN(C)C(=O)[C@H]1[C@H](CO)[C@H]2Cn3c(cccc3=O)[C@H]2N1CC1CCCCC1	9.8	1.0
C[C@H](CO)N1C[C@H](C)[C@H](CN(C)Cc2ccccc2C(=O)O)Oc2cc(-c3ccccc3)ccc2S1(=O)=O	11.2	5.8
COc1ccc(NC(=O)Nc2ccc3c(c2)CC(=O)N([C@H](C)CO)C[C@@H](C)[C@H](CN(C)S(C)(=O)=O)O3)cc1	16.7	-0.6
C[C@@H]1CN([C@@H](C)CO)C(=O)c2cccc(NC(=O)c3ccc(-c4nccs4)cc3)c2O[C@@H]1CN(C)C(=O)Nc1ccc(F)cc1	-5.7	-4.3
C[C@@H]1CN([C@H](C)CO)C(=O)c2cc(C3=CCCC3)cnc2O[C@@H]1CN(C)S(=O)(=O)c1cn(C)cn1	9.9	4.6
COc1ccccc1CNC(=O)C[C@H]1CC[C@H](NC(C)=O)[C@H](CO)O1	2.8	-0.3
CC(=O)N(C)C[C@@H]1Oc2cc(-c3cncnc3)ccc2S(=O)(=O)N([C@@H](C)CO)C[C@H]1C	10.0	12.1
COCC#Cc1ccc2c(c1)O[C@@H](CN(C)C)[C@H](C)CN([C@H](C)CO)S2(=O)=O	2.3	2.0
Cc1cccc(S(=O)(=O)N2CCCCN3[C@H](CO)[C@@H](c4ccc(-c5ccccc5)cc4)[C@H]3C2)c1	-29.4	-10.4
COc1ccc(NC(=O)N(C)C[C@H]2OCCCC[C@@H](C)Oc3ccc(NC(=O)c4ccccc4)cc3C(=O)N([C@@H](C)CO)C[C@@H]2C)cc1	-9.7	-16.5
O=C1CNC[C@H]2[C@H](c3ccc(-c4ccccc4F)cc3)[C@@H](CO)N12	10.1	1.5
C[C@@H](NC(=O)C[C@H]1CC[C@H]2[C@@H](COC[C@H](O)CN2C(=O)Nc2ccccc2)O1)c1ccccc1	-1.8	6.1
CO[C@H]1CN(C)C(=O)c2ccc(NS(=O)(=O)c3cn(C)cn3)cc2OC[C@@H](C)NC[C@H]1C	6.7	2.0
C[C@H](CO)N1C[C@H](C)[C@H](CN(C)C(=O)Nc2cccc3ccccc23)OCCCC[C@H](C)Oc2ccc(NC(=O)c3ccccc3)cc2C1=O	-2.9	4.7
C/C=C/c1ccc2c(c1)O[C@H](CN(C)S(=O)(=O)c1ccccc1)[C@H](C)CN([C@@H](C)CO)S2(=O)=O	?	.
CC(C)NC(=O)Nc1cccc2c1O[C@@H](CN(C)Cc1ccc(Oc3ccccc3)cc1)[C@@H](C)CN([C@@H](C)CO)C2=O	-5.9	-7.2
Cc1ccc(S(=O)(=O)N(C)C[C@@H]2Oc3c(NS(=O)(=O)c4ccccc4)cccc3C(=O)N([C@@H](C)CO)C[C@@H]2C)cc1	3.8	-0.1
COc1ccc(S(=O)(=O)Nc2ccc3c(c2)C(=O)N([C@@H](C)CO)C[C@H](C)[C@H](CN(C)S(=O)(=O)c2ccc(C)cc2)OCCCC[C@H](C)O3)cc1	-14.1	-20.2
COc1ccc2c3c([nH]c2c1)[C@H](CO)N(Cc1ccccn1)CC31CCN(C(C)=O)CC1	18.4	18.0
COCCOC(=O)N1C(=O)[C@@]2(c3cc(C#Cc4ccc(OC)cc4)ccc31)[C@H](C(=O)N1CCN(c3ncccn3)CC1)[C@H]1C(=O)O[C@H](c3ccccc3)[C@H](c3ccccc3)N1[C@@H]2c1ccccc1OCCO	-5.6	-3.8
COc1cccc(S(=O)(=O)Nc2ccc3c(c2)[C@H]2C[C@H](CC(=O)NCc4ccc(Cl)cc4)O[C@H](CO)[C@H]2O3)c1	?	.
COc1ccc(CNC(=O)N(C)C[C@@H]2OCc3ccccc3-c3c(n(C)c4ccccc34)C(=O)N([C@H](C)CO)C[C@H]2C)cc1	?	.
C/C=C/c1ccc2c(c1)O[C@H](CN(C)C(=O)Nc1ccc(C(F)(F)F)cc1)[C@@H](C)CN([C@@H](C)CO)S2(=O)=O	?	.
Cc1cccc(S(=O)(=O)N2C[C@H](O)COC[C@@H]3O[C@H](CC(=O)N4CCN(C)CC4)CC[C@H]32)c1	-1.3	10.8

A draw from above in order of count of non-hydrogen atoms, high to low:
SMILES	Vaccinia stage	Vaccinia stage Venus
C[C@@H]1CN([C@@H](C)CO)C(=O)c2cccc(NC(=O)c3ccc(-c4nccs4)cc3)c2O[C@@H]1CN(C)C(=O)Nc1ccc(F)cc1	-5.7	-4.3
COc1ccc(NC(=O)Nc2ccc3c(c2)CC(=O)N([C@H](C)CO)C[C@@H](C)[C@H](CN(C)S(C)(=O)=O)O3)cc1	16.7	-0.6
C[C@@H]1CN([C@H](C)CO)C(=O)c2cc(C3=CCCC3)cnc2O[C@@H]1CN(C)S(=O)(=O)c1cn(C)cn1	9.9	4.6

The listing continues:
SMILES	Vaccinia stage	Vaccinia stage Venus
O=C(C1CC1)N1[C@@H]2CN(S(=O)(=O)c3ccc(F)cc3)c3ccccc3[C@@H]2[C@@H]1CO	-2.4	4.4
COc1ccc(S(=O)(=O)N(C)C[C@H]2Oc3c(NS(=O)(=O)c4ccccc4)cccc3C(=O)N([C@H](C)CO)C[C@@H]2C)cc1	2.1	-3.7
O=C(C[C@H]1CC[C@H]2[C@@H](COC[C@H](O)CN2Cc2ccncc2)O1)NCc1ccccc1Cl	1.9	3.5
CC[C@H]1C=C(C(=O)N[C@@]2(C(=O)O)C[C@H]2CC)[C@H]2CCC(=O)[C@H]2C1	1.3	-4.1
CS(=O)(=O)Nc1ccc2c(c1)[C@@H]1C[C@H](CC(=O)NCc3ccccc3)O[C@@H](CO)[C@@H]1O2	-5.9	-6.1
CC(C)C#Cc1ccc([C@H]2[C@@H](CO)N3C(=O)CN(C(=O)NC4CCCCC4)C[C@H]23)cc1	-10.4	-5.5
O=S(=O)(c1ccccc1)N1[C@@H]2CNC[C@H]1C2c1ccc(/C=C/c2ccccc2)cc1 (some centres undefined)	14.5&8.0	20.3&3.0
CC(C)NC(=O)N1[C@H](CO)[C@@H](c2ccccc2)C12CN(Cc1ccccc1)C2	4.3	5.4
CC(C)C#Cc1cnc2c(c1)C(=O)N([C@H](C)CO)C[C@@H](C)[C@H](CN(C)C(=O)Cc1ccccn1)O2	5.8	4.7
C[C@H](CO)N1C[C@H](C)[C@@H](CN(C)S(=O)(=O)c2ccccc2)Oc2c(NC(=O)Nc3ccccc3)cccc2C1=O	-22.8	-14.8
O=C(C1CCOCC1)N1CC(=O)N2[C@H](CO)[C@@H](c3ccc(C#CC4CCCC4)cc3)[C@H]2C1	0.2	-2.0
CO[C@@H]1CN(C)C(=O)c2ccc(NC(=O)c3cccc(F)c3)cc2OC[C@H](C)N(C(C)=O)C[C@H]1C	-1.2	-1.0
CN(C)CC#Cc1ccc([C@H]2[C@@H](CO)N3C(=O)CN(C(=O)Cc4cccnc4)C[C@H]23)cc1	10.0	3.7
COCC#Cc1ccc([C@@H]2[C@@H](CO)N3C(=O)CN(C(=O)CN4CCOCC4)C[C@@H]23)cc1	24.9	12.7
C#CCNC(=O)C1=C[C@@H](c2coc3ccccc3c2=O)C[C@@H](OCc2ccc(CO)cc2)O1	8.6	8.0
Cc1noc(C)c1NC(=O)Nc1ccc2c(c1)C(=O)N([C@H](C)CO)C[C@H](C)[C@@H](CN(C)CC1CC1)OCCCC[C@@H](C)O2	10.5	4.1
Cc1noc(C)c1NC(=O)Nc1ccc2c(c1)C(=O)N([C@H](C)CO)C[C@H](C)[C@H](CN(C)C(=O)Nc1ccc(F)cc1)OCCCC[C@H](C)O2	19.8	4.2
C[C@H]1CN([C@@H](C)CO)C(=O)Cc2cc(NS(=O)(=O)c3ccc(Cl)cc3)ccc2O[C@@H]1CN(C)C(=O)Nc1ccc(C(F)(F)F)cc1	0.4	12.6
C[C@H](CO)N1C[C@H](C)[C@H](CN(C)S(=O)(=O)c2ccccc2)Oc2ncc(-c3ccc(F)cc3)cc2C1=O	-25.7	-19.8
COc1ccc2c3c([nH]c2c1)[C@H](CO)N(C(=O)NC(C)C)CC31CN(C(=O)C2CCCC2)C1	10.5	4.0

Entries of single compounds, looked up by structure. Values in the order: Vaccinia stage, Vaccinia stage Venus
`CN(C)CC#Cc1ccc([C@H]2[C@@H](CO)N3C(=O)CN(C(=O)Cc4cccnc4)C[C@H]23)cc1` reads 10.0, 3.7
`C[C@H]1CN([C@@H](C)CO)C(=O)Cc2cc(NS(=O)(=O)c3ccc(Cl)cc3)ccc2O[C@@H]1CN(C)C(=O)Nc1ccc(C(F)(F)F)cc1` reads 0.4, 12.6
`C[C@H](CO)N1C[C@H](C)[C@H](CN(C)S(=O)(=O)c2ccccc2)Oc2ncc(-c3ccc(F)cc3)cc2C1=O` reads -25.7, -19.8
`COc1ccc2c3c([nH]c2c1)[C@H](CO)N(C(=O)NC(C)C)CC31CN(C(=O)C2CCCC2)C1` reads 10.5, 4.0
`O=C(C1CCOCC1)N1CC(=O)N2[C@H](CO)[C@@H](c3ccc(C#CC4CCCC4)cc3)[C@H]2C1` reads 0.2, -2.0

(list continues)
SMILES	Vaccinia stage	Vaccinia stage Venus
O=C(Cc1ccccc1)N1C[C@H]2[C@@H](c3ccccc31)[C@@H](CO)N2C(=O)C1CCOCC1	10.4	3.2
C[C@H]1CN([C@@H](C)CO)C(=O)c2cccc(NS(=O)(=O)c3ccc(F)cc3)c2O[C@@H]1CN(C)C(=O)Nc1ccc2c(c1)OCO2	19.5	12.0
CCC(=O)NC[C@@H]1[C@H](c2ccc(-c3ccccc3)cc2)[C@H](CO)N1C(=O)C1CC1	-3.5	-1.4
Cc1ccc(-c2cnc3c(c2)C(=O)N([C@@H](C)CO)C[C@@H](C)[C@H](CN(C)C(=O)Cc2ccncc2)O3)cc1	-4.4	-0.7
O=C(NCC[C@H]1CC[C@H](NS(=O)(=O)c2cccc(F)c2)[C@@H](CO)O1)c1cnccn1	-1.1	12.3
O=C(C[C@H]1CC[C@@H]2[C@H](COC[C@@H](O)CN2CC2CCOCC2)O1)NCC1CC1	-4.1	3.9
CO[C@@H]1CN(C)C(=O)c2ccc(NC(=O)c3ccc(Oc4ccccc4)cc3)cc2OC[C@H](C)NC[C@H]1C	?	.
CO[C@H]1CN(C)C(=O)c2ccc(NC(=O)C3CCCC3)cc2OC[C@@H](C)N(C)C[C@H]1C	6.3	1.4
O=S(=O)(N[C@H]1CC[C@H](CCn2cc(-c3cccc(F)c3)nn2)O[C@@H]1CO)c1ccccc1	-18.6	-18.1
Cc1ccc(S(=O)(=O)N(C)C[C@@H]2Oc3ccc(NC(=O)Nc4ccc(F)cc4)cc3C(=O)N([C@H](C)CO)C[C@H]2C)cc1	-5.2	6.1
C[C@H](CO)N1C[C@H](C)[C@H](CN(C)C(=O)Nc2ccc3c(c2)OCO3)Oc2c(NC(=O)Nc3ccc4c(c3)OCO4)cccc2C1=O	-11.4	-3.5
C[C@H](CO)N1C[C@H](C)[C@H](CN(C)Cc2cccc(C(F)(F)F)c2)OCc2cn(nn2)CCCC1=O	-0.8	1.0
Cc1noc(C)c1NC(=O)N[C@@H]1CC[C@@H](CCNC(=O)C2CC2)O[C@H]1CO	10.0	8.3
CC=Cc1ccc2n(c1=O)C[C@H]1[C@H](CO)[C@@H](C(=O)N3CCc4ccccc4C3)N(C)[C@@H]21 (mixture of isomers)	-1.3	1.0
C[C@H]1CN([C@@H](C)CO)C(=O)c2cccc(NS(=O)(=O)c3ccc(F)cc3)c2O[C@@H]1CN(C)S(=O)(=O)c1ccc(F)cc1	14.5	2.9
CN1C(=O)c2cc(NC(=O)Cc3ccccc3)ccc2OC[C@H]2O[C@@H](CC(=O)NCC3CC3)CC[C@H]21	-5.5	-5.5
C[C@H]1CN([C@@H](C)CO)C(=O)Cc2cc(NC(=O)Nc3cccc4ccccc34)ccc2O[C@@H]1CN(C)S(C)(=O)=O	17.7	7.5
CN1C(=O)c2cc(NC(=O)Nc3ccc(Cl)cc3)ccc2OC[C@@H]2O[C@H](CC(=O)O)CC[C@H]21	2.8	1.1
CO[C@@H]1CN(C)C(=O)c2ccc(NC(=O)Nc3ccccc3Cl)cc2OC[C@@H](C)NC[C@@H]1C	-10.1	-11.5
O=C(C[C@H]1C=C[C@@H](NC(=O)CC2CC2)[C@H](CO)O1)NCc1ccccc1	-0.4	6.5
C[C@@H]1CN([C@H](C)CO)C(=O)c2cccc(NS(=O)(=O)c3ccccc3)c2O[C@H]1CN(C)C(=O)Nc1ccc(F)cc1	24.2	5.5
COc1ccc(S(=O)(=O)Nc2ccc3c(c2)CC(=O)N([C@@H](C)CO)C[C@@H](C)[C@H](CN(C)C(=O)NC(C)C)O3)cc1	12.1	0.1
COc1ccccc1CN1[C@@H]2Cn3c(ccc(C4=CCCC4)c3=O)[C@H]1[C@@H](C(=O)N(C)C)[C@@H]2CO	0.4	-3.5
O=C(Nc1cc(F)ccc1F)N1[C@@H]2CNC[C@H]1C2c1ccc(-c2ccc(F)cc2)cc1 (some centres undefined)	-2.1&-9.0	-5.5&-5.0
O=C([C@@H]1[C@@H](CO)[C@@H]2Cn3c(ccc(C4=CCCC4)c3=O)[C@H]1N2C(=O)c1ccncc1)N1CCCCC1	10.1	16.9
CC=Cc1ccc2n(c1=O)C[C@H]1[C@H](CO)[C@@H](C(=O)NCC)[C@@H]2N1Cc1ccccc1 (mixture of isomers)	7.6	3.8
O=C(CCN1CCCCC1)N[C@H]1CC[C@H](CCn2cc(-c3ccc(F)cc3)nn2)O[C@H]1CO	-11.7	-12.7
